Assay outcomes deposited in PubChem BioAssay by Broad Institute.
rRNA inh HTS = selective bacterial rRNA inhibition in E. coli; E. coli WT GFP vs humanized-ribosome RFP mutants, fluorescence, 24 h; hits give low values; DMSO median 0, no signal -100; GFP signal change (wild-type ribosome), % (test concentration not listed); actives 1.6% (n = 350,000);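 active = significant combined selectivity score with lowered wild-type GFP, culture density cut under 30%, mutant RFP and density less affected; inactive = any of these conditions unmet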; also: one replicate is shown; some compounds called inactive have numbers as strong as hits
AF4-AF9 inh = blocks AF4 peptide binding to human AF9; P42568; actives 0.47% (n = 350,000); inhibition, % at 10 µM; AlphaScreen, biotin-AF4 peptide binding to FLAG-AF9;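 active = every replicate reaching a set inhibition limit, whatever the replicate mean, cut at about 25% in these data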;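 also: 0% = plate neutral control median and 100% = total signal loss; the record names both 10 and 1 µM as test concentration; the first replicate is given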
Target sequence (P42568 whole entry, looked up): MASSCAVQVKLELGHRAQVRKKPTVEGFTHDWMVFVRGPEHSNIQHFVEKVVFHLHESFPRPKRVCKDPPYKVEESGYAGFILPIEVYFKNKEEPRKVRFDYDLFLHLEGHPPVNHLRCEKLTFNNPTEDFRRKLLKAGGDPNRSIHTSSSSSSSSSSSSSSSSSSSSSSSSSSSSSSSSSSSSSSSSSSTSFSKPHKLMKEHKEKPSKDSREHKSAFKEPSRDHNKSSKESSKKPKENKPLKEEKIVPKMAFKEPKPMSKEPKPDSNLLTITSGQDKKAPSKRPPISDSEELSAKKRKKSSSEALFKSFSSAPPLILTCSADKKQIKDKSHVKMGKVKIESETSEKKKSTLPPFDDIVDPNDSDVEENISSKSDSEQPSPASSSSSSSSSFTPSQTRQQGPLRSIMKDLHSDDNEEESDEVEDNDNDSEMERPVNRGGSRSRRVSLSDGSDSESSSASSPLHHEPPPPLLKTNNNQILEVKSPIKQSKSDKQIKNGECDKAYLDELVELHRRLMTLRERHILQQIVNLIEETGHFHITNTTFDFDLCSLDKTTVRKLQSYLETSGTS
FGF22 binding = FGF22 (human) thermal shift binding; Q9HCT0; recombinant FGF22 thermal shift, SYPRO orange fluorescence; percent of sucrose octasulfate shift, DMSO zero; calls only at 9.99 µM; actives 1.5% (n = 340,000); AID 651658;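 active = melting point raised past a set limit in the mean and every replicate; three in four hits are not shown here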
Target sequence (Q9HCT0 whole entry, looked up): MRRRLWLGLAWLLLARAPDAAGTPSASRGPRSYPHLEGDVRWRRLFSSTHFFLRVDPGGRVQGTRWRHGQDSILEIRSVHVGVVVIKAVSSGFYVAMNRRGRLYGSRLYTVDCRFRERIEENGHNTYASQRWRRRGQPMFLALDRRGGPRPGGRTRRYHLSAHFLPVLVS
rRNA inh HTS OD600 = further read-out of rRNA inh HTS, marked with its call; OD600 change, %; measured here: OD600 growth;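 optical density of the mix in the first replicate; 0 = DMSO median and -100 = no signal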
rRNA inh HTS RFP = recorded beside rRNA inh HTS, whose call it bears; RFP signal change, %; measured here: RFP humanized mutant strains;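 first replicate; 0 = DMSO median and -100 = no signal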
Numbers without * were called inactive; i = inactive.

SMILES	rRNA inh HTS	rRNA inh HTS OD600	rRNA inh HTS RFP	AF4-AF9 inh	FGF22 binding
C[C@@H]1CCCCO[C@@H](CN(C)Cc2ccccc2)[C@@H](C)CN([C@@H](C)CO)C(=O)c2cc(NS(=O)(=O)c3ccccc3)ccc2O1	0	-7	2.0	2.3	i
O=C(C[C@@H]1C[C@@H]2c3cc(NC(=O)C4CCOCC4)ccc3O[C@@H]2[C@H](CO)O1)NCc1ccccc1	5	6	-2.3	-0.3	i
CCCCCCN1C[C@@H](O)[C@H](n2cc(COC(=O)c3ccccc3)nn2)C[C@@H]1c1ccc(Cl)cc1	15	25	1.9	-3.1	i
CC1(C(=O)Nc2ccc3c(c2)OCCO3)CCN1C(=O)C/C=C/c1ccccc1 (stereo not given)	0	-5	3.4	-2.0	i
COc1ccccc1-c1ccc2n(c1=O)C[C@@H]1[C@@H](CO)[C@H](C(=O)O)N(C(=O)c3cccnc3)[C@H]21	2	0	-0.1	-0.7	i
CC(C)NC(=O)Nc1cccc2c1O[C@H](CN(C)C(=O)Nc1ccc(F)cc1)[C@H](C)CN([C@@H](C)CO)C2=O	3	8	-0.6	-3.3	i
Cn1c(N)cc(=O)n(C)c1=S	5	2	2.4	-2.8	i
O=C(C[C@@H]1C=C[C@H](NS(=O)(=O)c2cccc(F)c2)[C@@H](CO)O1)N1CCCCC1	0	4	-0.3	-0.7	i
O=C(C[C@@H]1CC[C@H]2[C@@H](COC[C@H](O)CN2Cc2ccccc2F)O1)N[C@H]1CCN(Cc2ccccc2)C1	4	2	-1.0	6.3	i
C[C@@H]1CN([C@@H](C)CO)C(=O)Cc2cc(NC(=O)Nc3ccc4c(c3)OCO4)ccc2O[C@H]1CN(C)S(=O)(=O)c1ccc(Cl)cc1	-4	-5	-2.1	6.9	i
COc1ccc2c3c(n(C)c2c1)[C@@H](CO)N(CC1CCCC1)CC31CCN(C(=O)Nc2ccccc2)CC1	0	-9	1.1	2.8	i
CCCNC(=O)[C@@H]1[C@@H](CO)[C@@H]2Cn3c(ccc(-c4ccccc4F)c3=O)[C@H]1N2S(C)(=O)=O	-1	-1	-0.3	1.7	i
CN(C)CCN1CCN(C2CN(Cc3cn(Cc4cccc(C(F)(F)F)c4)nn3)S(=O)(=O)C2)CC1 (stereo not given)	19	13	3.0	-0.1	i
COc1ccccc1-c1ccc2c(c1)O[C@H](CN(C)C)[C@H](C)CN([C@H](C)CO)S2(=O)=O	6	1	0.0	-2.2	i
C[C@@H]1CN([C@H](C)CO)C(=O)c2cc(NC(=O)Nc3ccc(F)cc3)ccc2O[C@H]1CN(C)C(=O)NC1CCCCC1	0	-7	-2.7	-1.1	i
O=C(C[C@H]1CC[C@H]2[C@@H](COC[C@@H](O)CN2Cc2ccc3c(c2)OCO3)O1)N1CCCCC1	-4	13	1.0	-13	i
O=C1NC(=S)SC1=Cc1ccc(F)cc1	-31	-26	-6.2	-3.5	i
CNC[C@H]1Oc2ccc(NC(=O)Nc3cccc4ccccc34)cc2C(=O)N([C@H](C)CO)C[C@H]1C	0	5	-4.1	1.1	i
COCCOC(=O)c1c(C)oc2ccc(O)c(CN3CCC(C)CC3)c12 (tested in a mixture with another compound)	3	-2	-0.6	-0.5	i
CC(C)CC#Cc1ccc2c(c1)O[C@H](CN(C)C(=O)NC(C)C)[C@H](C)CN([C@H](C)CO)S2(=O)=O	-7	-8	1.3	-1.1	i
COc1ccc(S(=O)(=O)N(C)C[C@@H]2Oc3cc(C4=CCCC4)ccc3S(=O)(=O)N([C@@H](C)CO)C[C@@H]2C)cc1	2	4	0.1	-1.1	i
O=C(C[C@H]1CC[C@@H](NC(=O)c2ccc(F)cc2)[C@H](CO)O1)NCc1ccncn1	2	1	-0.3	-0.5	i
COC[C@@H]1CCCN1c1ccc2c(c1)O[C@@H](COCc1ccccc1)CN([C@@H](C)c1ccccc1)S2(=O)=O	7	2	12	-1.9	i
CN(C)Cc1cn(CC[C@H]2CC[C@@H](NC(=O)Nc3ccc4c(c3)OCO4)[C@H](CO)O2)nn1	2	-6	-2.8	0.7	i
COc1ccc(-c2noc(CCC(=O)N3CCN(c4ccc(Cl)cc4)CC3)n2)cc1	20	22	6.8	0.5	i

Further compounds.
SMILES	rRNA inh HTS	rRNA inh HTS OD600	rRNA inh HTS RFP	AF4-AF9 inh	FGF22 binding
C[C@H]1CN([C@@H](C)CO)S(=O)(=O)c2ccc(C#CC3(O)CCCC3)cc2O[C@H]1CN(C)C(=O)Cc1cccnc1	3	0	2.9	3.7	i
C[C@@H](c1ccccc1)N1C[C@H](COCc2ccccc2)Oc2cc(N3CCC[C@H]3C(N)=O)ccc2S1(=O)=O	-22	-35	-5.9	2.8	i
COc1ccc2c3c([nH]c2c1)[C@H](CO)N(C(=O)c1ccc(F)cc1)CC31CN(C(=O)CC2CC2)C1	0	0	-1.4	-2.1	i
Cc1ccc(NC(=O)CN(C)C(=O)c2ccccc2Cc2ccccc2)cc1	1	-2	-1.0	1.9	i
C[C@@H]1CN([C@@H](C)CO)C(=O)c2cccc(NS(=O)(=O)c3ccccc3)c2O[C@H]1CN(C)CC1CC1	2	7	-1.0	-0.1	i
CO[C@H](CN(C)S(=O)(=O)c1cccc(Cl)c1)[C@@H](C)CN(C(=O)Nc1ccccc1F)[C@@H](C)CO	-1	-6	4.8	1.2	i
CCCc1cn(CC[C@@H]2CC[C@@H](NC(=O)Nc3ccccc3F)[C@@H](CO)O2)nn1	0	-1	0.0	-2.0	i
CC(C)NC(=O)N(C)C[C@H]1OCc2ccccc2-c2ccccc2C(=O)N([C@@H](C)CO)C[C@@H]1C	3	4	-1.0	-4.9	i
C(COC1CC2CC1C1C2CC2OC21)OC1CC2CC1C1C2CC2OC21 (stereo not given)	-11	-17	-0.6	-4.6	i
Cc1ccc(NCCCn2ccc(NC(=O)OCc3ccccc3)nc2=O)cc1C	-23	-30	5.9	8.6	i
Cc1ccc(S(=O)(=O)N2C[C@@H](O)COC[C@@H]3O[C@H](CC(=O)N[C@@H]4CCN(Cc5ccccc5)C4)CC[C@H]32)cc1	1	6	-1.0	-1.2	i
C[C@H]1CN([C@@H](C)CO)C(=O)c2cccc(NC(=O)c3nc4ccccc4s3)c2O[C@@H]1CN(C)Cc1ccc(C(=O)O)cc1	-9	-5	-4.8	-0.7	i
O=C(C1CCCC1)N1C[C@H]2[C@@H](c3ccccc31)[C@@H](CO)N2C(=O)Cc1ccccn1	1	4	2.4	0.7	i
C[C@H](CO)N1C[C@H](C)[C@H](CN(C)C(=O)Nc2ccc(F)cc2)OCCCC[C@H](C)Oc2ccc(NC(=O)Cc3ccccc3)cc2C1=O	3	3	0.8	-2.9	i
Cc1cc(C)cc(Cn2c3ccc(NC(=S)NC4CCCCC4)cc3c(=O)n2C)c1	-5	-8	-0.6	-1.2	i
O=C(c1cccc(F)c1)N1CCCCN2[C@@H](CO)[C@H](c3ccc(-c4cncnc4)cc3)[C@@H]2C1	0	-3	-1.1	-2.4	i
Cc1ccc(S(=O)(=O)Nc2ccc3c(c2)C(=O)N([C@@H](C)CO)C[C@@H](C)[C@@H](CN(C)C(=O)NC(C)C)OCCCC[C@@H](C)O3)cc1	-3	-4	1.4	-3.1	i
COc1ccc(S(=O)(=O)N(C)C[C@H]2Oc3ccc(NC(=O)Nc4ccccc4)cc3C(=O)N([C@@H](C)CO)C[C@H]2C)cc1	-2	-18	-4.5	1.5	i
CNC[C@H]1Oc2ccc(NS(=O)(=O)c3ccc(F)cc3)cc2C(=O)N([C@@H](C)CO)C[C@H]1C	11	2	1.1	-3.2	i
COc1cccc(CNC(=O)[C@H]2CCCN2C(=O)[C@H]2CCCN2C(=O)c2ccc(C)cc2)c1	14	8	-1.5	-0.5	i
COc1cccc(S(=O)(=O)N2CCCCN3[C@H](CO)[C@@H](c4ccc(C#CC(C)C)cc4)[C@H]3C2)c1	-47*	-28*	-1.7*	10	i
C[C@H]1CN([C@@H](C)CO)C(=O)c2cc(/C=C/c3ccccc3)cnc2O[C@@H]1CN(C)C(=O)Nc1ccccc1F	-10	-28	5.4	11	i
Cc1noc(C)c1NC(=O)N[C@@H]1C=C[C@H](CC(=O)N2CCCCC2)O[C@H]1CO	2	1	-1.1	-3.2	i
OCC[C@@H]1C[C@H](O)[C@@H](O)[C@]2(OCc3ccc4ccccc4c32)O1	9	4	1.5	0.0	i
CC(=O)N(C)C[C@@H]1Oc2ncc(C#C[C@@H](C)O)cc2C(=O)N([C@H](C)CO)C[C@H]1C	-2	-1	-3.6	-5.3	i

In the list so far, these contain two or more sulfur atoms:
SMILES	rRNA inh HTS	rRNA inh HTS OD600	rRNA inh HTS RFP	AF4-AF9 inh	FGF22 binding
O=C1NC(=S)SC1=Cc1ccc(F)cc1	-31	-26	-6.2	-3.5	i
COc1ccc(S(=O)(=O)N(C)C[C@@H]2Oc3cc(C4=CCCC4)ccc3S(=O)(=O)N([C@@H](C)CO)C[C@@H]2C)cc1	2	4	0.1	-1.1	i

Structural class: the compounds so far containing a COOH group (two)
SMILES	rRNA inh HTS	rRNA inh HTS OD600	rRNA inh HTS RFP	AF4-AF9 inh	FGF22 binding
COc1ccccc1-c1ccc2n(c1=O)C[C@@H]1[C@@H](CO)[C@H](C(=O)O)N(C(=O)c3cccnc3)[C@H]21	2	0	-0.1	-0.7	i
C[C@H]1CN([C@@H](C)CO)C(=O)c2cccc(NC(=O)c3nc4ccccc4s3)c2O[C@@H]1CN(C)Cc1ccc(C(=O)O)cc1	-9	-5	-4.8	-0.7	i

Next section
SMILES	rRNA inh HTS	rRNA inh HTS OD600	rRNA inh HTS RFP	AF4-AF9 inh	FGF22 binding
C[C@H](NC(=O)C[C@@H]1CC[C@@H](NC(=O)c2cccnc2)[C@H](CO)O1)c1ccccc1	1	8	2.0	-0.2	i
C[C@@H]1CN([C@@H](C)CO)C(=O)c2cc(-c3ccc(C#N)cc3)cnc2O[C@@H]1CN(C)C(=O)CN(C)C	-2	5	-4.1	-1.1	i
CCOC(=O)C1CCCN(C(=O)c2cccc(Cl)c2)CC1 (stereo not given)	6	11	0.1	0.8	i
COC(=O)[C@@]12C[C@@H](CC(=O)N3CCSCC3)C(=O)N(CCc3ccc(OC)c(OC)c3)C1=CCC(C)(C)C2	-4	-7	1.5	2.6	i
CN(C)CC#Cc1ccc([C@H]2[C@H]3CN(C(=O)NC4CCCC4)CCCCN3[C@H]2CO)cc1	4	25	-1.7	3.7	i
Cc1noc(C)c1NC(=O)Nc1cccc2c1O[C@H](CN(C)C(=O)Nc1cccc3ccccc13)[C@H](C)CN([C@@H](C)CO)C2=O	-4	2	4.2	2.8	i
O=C(CC(F)(F)F)N1C[C@@H]2[C@H](c3ccccc31)[C@@H](CO)N2C(=O)C1CCCC1	2	10	0.1	-1.7	i
C[C@H](CO)N1C[C@H](C)[C@@H](CN(C)Cc2cccnc2)Oc2ncc(-c3ccc(F)cc3)cc2C1=O	-2	9	-1.1	-1.9	i
CC(C)NC(=O)N(C)C[C@H]1Oc2cc(C3=CCCC3)ccc2S(=O)(=O)N([C@H](C)CO)C[C@H]1C	-6	-6	0.9	-7.1	i
COc1ccccc1NC(=O)Nc1ccc2c(c1)OC[C@H](C)NC[C@@H](C)[C@H](OC)CN(C)C2=O	0	-5	0.8	-2.3	i
Cc1cccc(NC(=O)c2nc[nH]c2C(=O)N[C@@H](C)CO)c1	1	0	-1.5	2.7	i
COc1ccc(C(C)(O)c2nc(-c3ccc(F)c(Cl)c3)cs2)cc1 (stereo not given)	-61	-83	-20	-7.9	i
CO[C@@H]1CN(C)C(=O)c2ccc(NS(=O)(=O)c3ccccc3)cc2OC[C@@H](C)N(Cc2nccs2)C[C@@H]1C	0	-1	4.7	0.9	i
CCc1ccc2cc(C)cnc2n1	0	4	-0.4	-0.6	i
CCCC(=O)Nc1ccc2c(c1)OC[C@H](C)N(C(=O)c1ccccn1)C[C@H](C)[C@@H](OC)CN(C)C2=O	0	3	-2.3	-24	i
Cc1cc(C(=O)Nc2cccc3c2O[C@H](CN(C)S(=O)(=O)c2ccc(F)cc2)[C@@H](C)CN([C@H](C)CO)C3=O)n(C)n1	2	2	2.5	-3.5	i
C[C@H](NC(=O)N(C)C[C@H]1OCc2ccccc2-c2ccccc2C(=O)N([C@H](C)CO)C[C@H]1C)c1ccccc1	-1	2	-4.6	-3.0	i
CO[C@H]1CN(C)C(=O)c2cc(NS(=O)(=O)c3c(C)noc3C)ccc2OC[C@@H](C)NC[C@@H]1C	4	4	-3.0	-1.7	i
CCCC#Cc1cnc2c(c1)C(=O)N([C@@H](C)CO)C[C@@H](C)[C@@H](CN(C)CCC)O2	4	6	-1.1	-0.8	i
C[C@H](CO)N1C[C@H](C)[C@H](CN(C)S(=O)(=O)c2ccc(C(F)(F)F)cc2)OCc2ccccc2-c2c(n(C)c3ccccc23)C1=O	2	6	-4.9	-2.4	i

Compound profiles (already shown). Screens in order: rRNA inh HTS	rRNA inh HTS OD600	rRNA inh HTS RFP	AF4-AF9 inh	FGF22 binding
C(COC1CC2CC1C1C2CC2OC21)OC1CC2CC1C1C2CC2OC21 (stereo not given) as listed: -11	-17	-0.6	-4.6	i
C[C@H](NC(=O)N(C)C[C@H]1OCc2ccccc2-c2ccccc2C(=O)N([C@H](C)CO)C[C@H]1C)c1ccccc1 as listed: -1	2	-4.6	-3.0	i

An excerpt (hit frequency here may not be typical).
